Lamin A splicing – modulators of lamin A splicing | HeLa LMNA splicing GFP/RFP minigene ratio, 48 h | 200,000 tested, 0.01% active | Potency, µM (top dose mostly 46.1 µM), without a hit: at the highest dose ratio change, negative = inhibition, most hits filed as inhibitors | AID 1487; active = well fitted inhibition curve with a large enough effect in the signal ratio, with a control signal flat, not every such curve was filed as active; inconclusive = small, poorly fitted or top-dose-only effect, or effect the other way, or a change in a side signal; the % refers to the signal ratio; note: % is set by controls: 0 for no effect and ±100 for the full control effect
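Read-out is the ratio of GFP to DsRed2 object intensity, acquired by 488 nm laser-scanning cytometry on HeLa lamin A-EGFP minigene reporter cells. Compound incubation 48 hrs at 37 °C in Opti-MEM with 2% FBS; DMSO 0.5% final.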
IMPase Li cell – IMPase inhibition in cells with lithium potentiation | AID 1457 | Potency, µM (doses to about 59.4 µM), for the others: at the top dose activity, negative = IMPase inhibition, usual class: inhibitors | CHO-M1 cells, IP1 TR-FRET (IP-One), carbachol + lithium | 210,000 tested, 0.35% active;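 note: IP1 builds up when IMPase is blocked and the TR-FRET signal falls; plate controls were basal vehicle for no effect and high inhibitor control for full effect; nearly all actives have a fitted effect of over 50% in size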
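Readout is a homogeneous TR-FRET IP1 immunoassay (Ex 320, Em 665 and 620), where raised cytosolic IP1 lowers signal. Cells were CHO-M1 treated 30 min at 37C with test compounds plus a little lithium; AC50 values came from Hill-equation fitting.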
HTT ATP protect – cytoprotection in Huntington HTT-Q103 PC12 cell model; PC12 HTT-Q103 induced, cytoprotection, ATP luminescence, 40 h; Potency, µM (series often up to 56.4 µM), inactives show cytoprotection (ATP increase), usual class: activators; 230,000 tested, 0.14% active;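 note: % of control where 0% means no effect; nearly all actives have a fitted effect of over 45% in size; toxic huntingtin expression switched on by the ecdysone agonist tebufenozide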
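Stable PC12 Q103-GFP cells in serum-supplemented, phenol red-free DMEM; induction by tebufenozide at 100 nM final; compound dose series; cell viability quantified luminescently from ATP.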
HttQ103 aggreg – mutant huntingtin aggregation inhibition; PC12 HttQ103-GFP aggregates, Acumen cytometry, 40 h; Potency, µM (top dose mostly 46.1 µM), for the others: top-dose activity change, negative = inhibition, usual class: inhibitors; 220,000 tested, 1.1% active; AID 1688; note: % is set by controls: 0 for no effect and ±100 for the full control effect; nearly all actives have a fitted effect of over 60% in size
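Aggregates are detected as GFP objects 1–25 µm with signal 6 STDEV over background in lysates of induced PC12 cells. These carry Huntingtin exon 1 with 103 glutamines fused to GFP under an ecdysone promoter; compounds titrated.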
Starred values were filed as active, the others as inactive; ? = inconclusive; . = no result given; & = joins results of further samples; [ ] = remark or other dose. Unless noted, calls come from the whole dose curve; as a rule, active = well fitted curve in the direction sought with a large enough effect; inconclusive = small, poorly fitted or top-dose-only effect, or another doubt; inactive = no such curve, though single readings can be large; an effect the other way counts as inactive or inconclusive. Potency is the fitted concentration of half-maximal effect. Only part of the results is shown; rates above refer to the full screens.

The first 2 records (preview)
(1) O=C(O)CN(Cc1ccccc1)S(=O)(=O)c1ccc(F)cc1
(2) Cc1nc(-c2ccc(C(=O)Nc3ccccc3F)cc2)cs1

compound no.	1	2
Lamin A splicing	3%	-12%[46 µM]
IMPase Li cell	24%[38.3 µM]	9%
HTT ATP protect	6%[0.074 µM]	.
HttQ103 aggreg	-7%	-4%

The listing, from the start:
(1) O=C(O)CN(Cc1ccccc1)S(=O)(=O)c1ccc(F)cc1
(2) Cc1nc(-c2ccc(C(=O)Nc3ccccc3F)cc2)cs1
(3) CC(=O)c1ccc2c(c1)N(CCCN1CCC(CCO)CC1)c1ccccc1S2
(4) COc1ccc(-c2nc3ccccc3s2)cc1
(5) COc1ccc(NC(=O)c2ccc(Br)o2)cc1
(6) CCOc1ccc(NC(=O)Nc2cc(C)ccc2F)cc1
(7) C[C@@]12CC[C@@H]3c4ccc(O)cc4CC[C@H]3[C@H]1CC[C@H]2O
(8) Cc1occc1-c1nc(-c2ccccn2)no1

compound no.	1	2	3	4	5	6	7	8
Lamin A splicing	3%	-12%[46 µM]	?	15%[46 µM]	?	11%	?	11%
IMPase Li cell	24%[38.3 µM]	9%	20%	7%	-2%&-2%	14%[38.3 µM]	3%	-8%[38.3 µM]
HTT ATP protect	6%[0.074 µM]	.	-61%[inhibitor][17.1 µM]	.	-229%[inhibitor]	-9%[10 µM]	-6%[40.3 µM]	-94%[inhibitor]
HttQ103 aggreg	-7%	-4%	-4%[20.6 µM]	.	-6%	0%	.	19%

(9) OC(CCN1CCCC1)(c1ccccc1)C1CCCCC1 (stereo not given)
(10) COc1ccc(/C=N/NC(=O)c2nonc2C)cc1
(11) CC(=O)CC(c1ccccc1)C1C(=O)Oc2ccccc2C1=O (stereo not given)
(12) COC(=O)[C@H]1[C@@H]2C[C@@H]3c4[nH]c5ccccc5c4CCN3C[C@H]2CC[C@H]1O
(13) Cc1cccc(C)c1NC(=O)[C@H](C)N

compound no.	9	10	11	12	13
Lamin A splicing	-3%	-10%	8%	.	?
IMPase Li cell	30%&41%	-5%	0%	11%	-3%
HTT ATP protect	33%	14%[10 µM]	19%	-4%[1.9 µM]	-7%[40.3 µM]
HttQ103 aggreg	9%	-2%	15%	.	18%[20.6 µM]

Look-ups from the results shown.
compound 12 in HTT ATP protect is listed with -4%[1.9 µM]
compound 13 in IMPase Li cell is listed with -3%

From entry 5 up to 10, copied from above:
(5) COc1ccc(NC(=O)c2ccc(Br)o2)cc1
(6) CCOc1ccc(NC(=O)Nc2cc(C)ccc2F)cc1
(7) C[C@@]12CC[C@@H]3c4ccc(O)cc4CC[C@H]3[C@H]1CC[C@H]2O
(8) Cc1occc1-c1nc(-c2ccccn2)no1
(9) OC(CCN1CCCC1)(c1ccccc1)C1CCCCC1 (stereo not given)
(10) COc1ccc(/C=N/NC(=O)c2nonc2C)cc1

compound no.	5	6	7	8	9	10
Lamin A splicing	?	11%	?	11%	-3%	-10%
IMPase Li cell	-2%&-2%	14%[38.3 µM]	3%	-8%[38.3 µM]	30%&41%	-5%
HTT ATP protect	-229%[inhibitor]	-9%[10 µM]	-6%[40.3 µM]	-94%[inhibitor]	33%	14%[10 µM]
HttQ103 aggreg	-6%	0%	.	19%	9%	-2%

High-throughput results as filed in PubChem BioAssay.
